Source: PubChem
A647 autofl: qHTS Assay for Spectroscopic Profiling in A647 Spectral Region; AID 592, 2007; max dye-equivalent concentration, M; 59,000 tested, under 10 active; Compound fluorescence, A647 channel (570/671 nm), Tris buffer; active means above 1 µM dye equivalent; inconclusive means 0.1 to 1 µM; inactive means 0.1 µM or less;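 further: values scaled relative to a standard on each plate; highest value over a series up to 38 µM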
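Fluorescence read (570 nm ex, 671 nm em) after 15 min RT incubation of compounds in 100 mM Tris buffer, pH 8.0; values expressed as dye-equivalent concentration against a six-point A647 standard series on each plate.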
TSHR agonist: qHTS Assay for Agonists of the Thyroid Stimulating Hormone Receptor; HEK293-CNG-TSHR cells (CNG channel as cAMP sensor), membrane potential dye, cAMP; Potency, µM (series often up to 57.1 µM), for the others: at the highest dose activation, actives largely listed as activators; Thyrotropin receptor (Homo sapiens), P16473; AID 926, 2007; 73,000 tested, 0.48% active; active = well fitted activation curve of enough size with the parental cells flat; inconclusive = any curve in the parental cells; inactive = parental cells flat and receptor cells flat or falling; further: potency means the concentration at half of the fitted maximal effect; % of control where 0% means no effect; weak receptor curves with flat parental cells got no call and are not listed
Target sequence (P16473 whole entry, looked up): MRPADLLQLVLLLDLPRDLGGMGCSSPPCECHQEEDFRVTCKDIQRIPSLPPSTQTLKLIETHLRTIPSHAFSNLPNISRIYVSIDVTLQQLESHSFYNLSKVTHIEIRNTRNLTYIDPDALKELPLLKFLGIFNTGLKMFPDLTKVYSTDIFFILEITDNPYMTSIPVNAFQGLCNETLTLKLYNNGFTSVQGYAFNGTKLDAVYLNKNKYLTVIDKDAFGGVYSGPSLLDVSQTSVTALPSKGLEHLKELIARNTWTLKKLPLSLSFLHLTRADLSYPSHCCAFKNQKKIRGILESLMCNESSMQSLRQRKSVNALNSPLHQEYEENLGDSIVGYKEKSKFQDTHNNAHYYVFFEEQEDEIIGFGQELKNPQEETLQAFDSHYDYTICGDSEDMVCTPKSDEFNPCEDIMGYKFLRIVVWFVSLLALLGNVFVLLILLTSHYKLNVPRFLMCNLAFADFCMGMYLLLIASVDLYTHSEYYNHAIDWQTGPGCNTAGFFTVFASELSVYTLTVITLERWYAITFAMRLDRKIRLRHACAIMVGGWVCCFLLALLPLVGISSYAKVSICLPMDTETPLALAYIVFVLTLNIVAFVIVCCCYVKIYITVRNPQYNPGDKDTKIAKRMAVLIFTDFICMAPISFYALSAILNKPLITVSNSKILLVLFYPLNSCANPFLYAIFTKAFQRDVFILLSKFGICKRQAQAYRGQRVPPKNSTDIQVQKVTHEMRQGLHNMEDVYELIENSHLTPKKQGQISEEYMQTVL
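cAMP rise detected as CNG-channel membrane depolarization by fluorescent dye (emission 590 nm), 30 min after compound, following 60 min dye loading containing 100 uM RO 20-1724 at room temperature. Cells: TSHR/CNG HEK 293, with parental CNG HEK 293 as control.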
Resorufin fluor: qHTS Assay for Spectroscopic Profiling in Resorufin Spectral Region | Compound fluorescence, resorufin region 547/598 nm, buffer; active compounds read high | max dye-equivalent concentration, M | 59,000 tested, 0.04% active | AID 588, 2007; active = above 10 nM dye equivalent; inconclusive = 1 to 10 nM; inactive = 1 nM or less; a few of its hits are not listed in these tables; further: highest value over a series up to 38 µM
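Read-out: intrinsic compound fluorescence at ex 547/em 598 nm after 15 min at RT in pH 8.0 Tris (100 mM). Values expressed as resorufin-equivalent concentration from per-plate standard series.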
AID923: qHTS Assay for Allosteric/Competitive Inhibitors of Caspase-1: Spectroscopic Profiling in AFC Spectral Region | Potency, µM (top dose mostly 57.5 µM), without a hit: top-dose fluorescence increase, most hits filed as activators | compound fluorescence, AFC spectral region (405/520 nm); almost no hit is shown here | 75,000 tested, 1.1% active; active means well fitted activation curve with a large enough effect; inconclusive means small, poorly fitted or top-dose-only effect;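 further: potency means the concentration at half of the fitted maximal effect; 0% is about no effect; scaled to a free AFC standard on each plate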
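Baseline compound fluorescence (AFC region, 405 nm ex/520 nm em) taken from the intercept of kinetic reads with 50 nM caspase-1 and 5 uM Ac-WEHD-AFC; normalized to an on-plate AFC standard curve; compounds titrated up to 57 uM.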
A488 autofl: qHTS Assay for Spectroscopic Profiling in A488 Spectral Region; compound autofluorescence, A488 spectral region, dye equivalency; active compounds read high; max dye equivalency, M; 59,000 tested, 0.1% active; active = above 10 nM dye equivalent; inconclusive = 1 to 10 nM; inactive = 1 nM or less; about half of its hits are not listed in these tables;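 further: highest value over a series up to 38 µM; compound alone in buffer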
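Readout is A488 dye-equivalent concentration, calibrated by a per-plate six-point Alexa 488 series. Compounds in 100 mM Tris buffer pH 8.0 were incubated 15 min at room temperature. Plates were imaged using 480 nm excitation/540 nm emission filters.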
* = called active by the depositor; i = inactive; u = inconclusive; x = no result given; [ ] = remark or other dose. Some of the compounds tested; count on the stated rates, not on these rows.

structure	TSHR agonist	A647 autofl	A488 autofl	Resorufin fluor	AID923
NC(=O)c1ccc(NS(=O)(=O)c2ccccc2F)cc1	1.9%	2.85e-08	i	i	0.2%
COCC(C)n1c(C)cc(C(=O)COC(=O)c2ccc(N3CCCC3=O)cc2)c1C (stereo not given)	u	7e-09	i	i	-0.2%
CCOC(=O)c1c(C)n(C)c2ccc(O)c(CN3CCN(C)CC3)c12	8.2%	1.97e-08	i	i	-1.8%
CC1(C)C(c2ccccn2)=[N+]([O-])C(C)(C)N1O	28.3%	x	x	x	0.7%
CCn1cc(C(=O)NCc2ccco2)c(=O)c2cc(S(=O)(=O)N3CCc4ccccc4C3)ccc21	-10.5%	1e-09	i	i	0.9%
Cc1ccc(-n2ncc3c(NCCCOC(C)C)ncnc32)c(C)c1	x	3.1e-08	i	i	x
CC(=O)Nc1ccc2nc(C3CCCCC3)[nH]c2c1	-0.1%	1e-09	i	i	0.0%
O=C(CCN1CCCCC1c1cccnc1)NCc1ccccc1 (stereo not given)	6.5%	1.9e-09	i	i	2.6%
Cc1cc(NC(=O)CCC(=O)N(CCC(C)C)CC(=O)NCC2CCCO2)no1 (stereo not given)	-3.5%	2.5e-09	i	i	7.5%
O=C(Oc1ccccc1)c1ccc(-n2cnnn2)cc1	-1.2%	1e-09	i	i	-1.9%
COc1ccc2nc(N3CCCC(C(=O)NCCCN4CCN(C)CC4)C3)sc2c1 (stereo not given)	7.9%	2.15e-08	i	i	-0.4%
C=CCn1c(SCc2ccc(OC)cc2)nnc1-c1cccnc1	28.6%	6e-09	i	i	3.4%
CCCc1cc(=O)[nH]c(SCC(=O)Nc2cc3c(cc2C(C)=O)OCO3)n1	u	2.57e-08	i	i	-1.1%
CCCCCNC(=O)C(C#N)c1nc2ccccc2nc1N1CCCC1 (stereo not given)	-7.9%	1e-09	2.89e-08M*	i	20.1%
O=C(Cn1c(NCCO)nc2ccccc21)c1cccs1	-0.6%	8.2e-09	i	i	0.3%
O=C(CSc1nc(C2CC2)nc2sc3c(c12)CCCC3)NCc1ccco1	u	3.22e-08	i	i	-0.5%
COc1ccccc1NC(=O)C(Cc1ccc(Cl)cc1)c1nn[nH]n1 (stereo not given)	6.2%	5.15e-08	i	i	-1.0%
O=C(O)c1ccc(C(=O)O)c(C(=O)O)c1.[NH-][C@@H]1CCCC[C@@H]1[NH-].[Pt]	-1.6%[11.4 µM]	1e-09	i	i	0.5%[11.5 µM]
Nc1c(C(=O)NCCN2CCOCC2)c2nc3ccccc3nc2n1-c1ccccc1	7.3%	4.09e-08	i	i	1.8%
O=S(=O)(NCCc1ccccc1)c1ccc(S(=O)(=O)N2CCCCC2)cc1	14.9%	3.02e-08	i	i	1.5%
COc1ccc(OC)c(C(C)NC=O)c1 (stereo not given)	6.1%	x	x	x	0.5%
COc1ccc(S(=O)(=O)N2CCCC(C(=O)N3CCN(C)CC3)C2)cc1C (stereo not given)	0.8%	7.7e-09	i	i	2.4%
Cc1cnn(C(=O)c2ccccc2Br)c1	-4.9%	x	x	x	-0.5%
O=C(Nc1ccccc1C(F)(F)F)c1cc(-c2ccccc2O)on1	u	1e-09	i	i	-0.5%
Cc1nnc(SCC(=O)Nc2ccc(Oc3ccccc3)cc2)n1N	-6.7%	1e-09	i	i	-1.0%
CN1CCN(CC(=O)n2c3c(c4ccccc42)CCCC3)CC1	u	1e-09	i	i	4.1%
CCOC(=O)Cc1nnc(NC(=O)Nc2ccccc2)s1	-11.0%	3.43e-08	i	i	0.1%
CCOC(=O)C1C2C=CC3(CN(C4CCCC4)C(=O)C13)O2 (stereo not given)	2.0%	1.3e-09	i	i	1.4%
Cc1nn2c(-c3ccc(Cl)cc3)nnc2s1	x	5.09e-08	i	i	x
Nc1nc(SCC(=O)Nc2ccc(Br)cc2F)n[nH]1	-5.6%	1e-09	i	i	0.7%
O=C(NCc1ccc2c(c1)OCO2)c1cc(-n2cnnc2)ccc1Cl	26.4%	2.19e-08	i	i	0.6%
Cc1nn(-c2nc3ccccc3s2)c(C)c1Oc1ccccc1O	u	1e-09	i	i	-0.4%
COc1ccc(C(C)(C)C)cc1NC(=O)c1c(C)noc1C	u	1.95e-08	i	i	-0.3%
O=C(CCCN1C(=O)c2ccccc2C1=O)Nc1sc2c(c1C(=O)NCc1ccco1)CCC2	49.6%	1.75e-08	i	i	0.9%
O=C(CCCCCn1c(SCc2ccncc2)nc2ccccc2c1=O)NCc1ccco1	u	2e-09	i	i	-0.8%
CC(=O)NC(=O)Nc1sc(=S)n(C)c1C	x	2.82e-08	i	i	x
COc1ccccc1NC(C)=O	1.2%	x	x	x	0.1%
Cc1nc2ccc(NC(=O)N3CCC(c4ccccc4)C3)cc2nc1C (stereo not given)	9.6%	1e-09	i	i	8.3%
CCOC(=O)c1c(CN2CCN(c3ccccc3)CC2)oc2ccc(O)cc12	-12.5%	x	x	x	-2.3%
Cc1cc(N2CC34C=CC(O3)C(C(=O)O)C4C2=O)no1 (stereo not given)	27.7%	1e-09	i	i	-0.7%
COc1cccc(OC)c1C(=O)N1CCN(S(=O)(=O)c2ccccc2)CC1	-4.4%	6.4e-09	i	i	0.8%
COc1ccc(CN2CCN(C(=O)CC(C)C)CC2)c(OC)c1OC	6.5%	x	x	x	2.9%
C=C(C)C(O)/C=C/c1cccc(OC)c1 (stereo not given)	6.5%[11.4 µM]	x	x	x	1.0%[11.5 µM]
Cc1ccc(/C=c2/sc3nnc(-c4ccccc4Cl)n3c2=O)o1	0.5%	x	x	x	9.5%
CN(C)c1ccnc2sc3c(=O)n(Cc4ccccc4)cnc3c12	14.1%	1.28e-08	i	i	1.0%
Cc1cccc2cc(CN(Cc3ccco3)C(=O)N3CCCC3)c(=O)[nH]c12	u	8.6e-09	i	i	0.2%
N#CCc1nnc2n1-c1ccccc1CCC2	-3.5%	x	x	x	2.5%
Clc1ccccc1Cn1nnc2c(N3CCCC3)ncnc21	2.5%	3.1e-09	i	i	0.7%
Cc1cc(C(=O)NCCN2CCCCC2C)n(-c2ccccc2)n1 (stereo not given)	0.0%	x	x	x	-1.5%
COC(=O)CCc1nc2ccccc2[nH]c1=O	4.1%	x	x	x	-0.6%
O=C(CSc1nc(O)cc(=O)[nH]1)Nc1ccc2c(c1)CCC2	-0.5%	1e-09	i	i	0.5%
CCn1c(SCC(=O)Nc2nonc2C)nnc1-c1ccco1	2.3%	1e-09	i	i	-0.7%
c1csc(-c2nnc3ccccn23)c1	2.8%	3.5e-09	i	i	-2.7%
CCOC(=O)c1ccc(Oc2c(C)oc3c(CN4CCN(C)CC4)c(O)ccc3c2=O)cc1	-1.9%	2.16e-08	i	i	7.8%
Cc1cccc(-n2nnc(C(=O)NC3CCCc4ccccc43)c2N)c1 (stereo not given)	3.5%	1e-09	i	i	-0.3%
CC(C)c1ccc(OCC(=O)NCc2ccco2)cc1	24.7%	4.8e-09	i	i	-1.3%
C[C@@H]1CC2(OC3C[C@@]4(C)C5=CC[C@H]6C(C)(C)C(O[C@@H]7OC[C@@H](O)[C@H](O)[C@H]7O)CC[C@@]67C[C@@]57CC[C@]4(C)C31)OC(O)C1(C)OC21 (stereo not given in full)	u	x	x	x	-0.3%
O=C(Cn1cnc2c(nnn2Cc2ccc(F)cc2)c1=O)OCc1ccccc1	-2.3%	1e-09	i	i	1.3%
COC(=O)COc1ccc(Oc2nc(SC)nc(N(C)C)n2)nn1	x	3.06e-08	i	i	x
Cc1cc2ncn(S(=O)(=O)N3CCOCC3)c2cc1C	10.5%	4e-08	i	i	-0.9%

The listing continues:
structure	TSHR agonist	A647 autofl	A488 autofl	Resorufin fluor	AID923
CN(C)CC(C)(C)CNC(=O)c1ccc(-n2c(=O)c(=O)[nH]c3ccccc32)cc1	9.9%	x	x	x	2.0%
CCCOc1ccc(Cl)cc1CN1CCOCC1	x	5.91e-08	i	i	x
CCCN1C(=O)C(NC(C)=O)c2cc(OC)ccc21 (stereo not given)	11.3%	1e-09	i	i	-1.4%
Cc1c(N=Cc2ccc(-c3ccc(Cl)cc3)o2)c(=O)n(-c2ccccc2)n1C	u	8.1e-09	i	i	-2.1%
Cc1ccccc1-c1nc(CS(=O)(=O)CC(=O)Nc2cc(F)ccc2F)c(C)o1	u	x	x	x	-0.7%
Cc1c(Cl)cccc1NC(=O)c1cc(C2CC2)on1	19.3%	x	x	x	-1.5%
COc1ccc(/C(O)=C2/C(=O)C(=O)N(Cc3cccnc3)C2c2ccncc2)cc1F (stereo not given)	8.3%	1.7e-08	i	i	-0.3%
Cn1c(NCc2cccs2)nc2ccccc21	u	2.4e-08	i	i	-1.1%
O=C(CSc1nc(NS(=O)(=O)c2ccccc2)cc(=O)[nH]1)Nc1ccc(F)cc1	-20.5%	5.8e-08	i	i	0.8%
C[N+](C)(C)c1ncnc2c1ncn2[C@@H]1C[C@H](O)[C@@H](CO)O1	4.7%[11.4 µM]	1.8e-09	i	i	1.9%[11.5 µM]
Cc1ccc(S(=O)(=O)NC2CCCC(C(=O)O)C2)cc1 (stereo not given)	x	6.7e-09	i	i	0.2%
CNC(=O)c1cc2c(ccc3ccccc32)oc1=N	x	1.08e-08	i	i	x
NC(N)=N[C@@H]1C(O)[C@H](N=C(N)N)[C@@H](O)C(O)[C@H]1O (stereo not given in full)	4.1%[11.4 µM]	1e-09	i	i	-3.0%[11.5 µM]
O=C(C1=C(O)C(=O)N(Cc2ccco2)C1c1cccnc1)c1cc2ccccc2o1 (stereo not given)	6.2%	2.12e-08	i	i	-2.5%
CC#CCCC(=O)N1C=Cc2ccccc2C1C#N (stereo not given)	6.5%[11.4 µM]	2.36e-08	i	i	0.5%
Nc1nc(SCc2ccc([N+](=O)[O-])cc2)c2ncn([C@@H]3O[C@@H](CO)[C@@H](O)[C@H]3O)c2n1	1.8%	1.65e-08	i	i	0.1%
Cc1nn(S(=O)(=O)N2CCCCC2)c(C)c1Br	23.3%	8.6e-08	i	i	-0.9%
CN(CC(=O)Nc1ccc2c(c1)OCCO2)S(=O)(=O)c1ccc(Br)s1	12.2%[11.4 µM]	2.86e-08	i	i	4.5%
